High-throughput results (PubChem)
Methyltransferases = Primary Screen for Target Class Profiling of Small Molecule Inhibitors of Methyltransferases. calls only at 40 µM. AID 1745853, 2022. purified enzyme, MTase-Glo SAH luminescence; active compounds read low. hit rate 3.9% among 25,000; active = -50% or lower on at least one of six enzymes; inconclusive = the cases between; inactive = as a rule above -30% on all six;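 note: enzymes were COMT GAMT GNMT HNMT NNMT and PNMT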
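Each enzyme was reacted with SAM and its substrate, with compounds tested once at 40 uM; SAH formed was read by MTase-Glo luminescence.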
Calls only. % is set by controls: 0 for no effect and ±100 for the full control effect.

Results for CCC1c2ccc(C)n2CCN1C(=O)Nc1ccc(C)c(F)c1 (stereo unspecified) ?
Methyltransferases: inactive

Results for CCOc1ccc(N(C(=O)c2ccc(OC)cc2)S(=O)(=O)c2ccc3c(c2)n(C)c(=O)n3C)cc1 ?
Methyltransferases: inactive

How did O=C(CCc1nnc2n(Cc3ccccc3Cl)c(=O)c3ccccc3n12)NCCCN1CCCC1=O do in these assays?
Methyltransferases: inactive

Results for O=C(CCn1ccc2cc(S(=O)(=O)N3CCCCC3)ccc21)NCc1ccccc1F ?
Methyltransferases: inactive

How did CCC1c2ccc(C)n2CCN1C(=O)Nc1cccc(Br)c1 (stereo unspecified) do in these assays?
Methyltransferases: inactive

How did O=c1c2ccccc2n2c(SCc3ccccc3F)nnc2n1CCc1ccccc1 do in these assays?
Methyltransferases: inactive

What do the screens show for `O=C(OCC(O)CO[C@@H]1O[C@H](C(=O)O)[C@@H](O)[C@H](O)[C@H]1O)c1ccccc1` (stereo partly specified)?
Methyltransferases: inactive

Results for COc1ccc(CNC(=O)CCc2nnc3n(CCC(C)C)c(=O)c4ccccc4n23)cc1 ?
Methyltransferases: inactive

Results for COc1cc(F)ccc1-c1nccc2c(=O)cc(-c3cnn(C)c3)oc12 ?
Methyltransferases: inactive

Results for COc1cccc(CSc2nnc3n(Cc4ccccc4)c(=O)c4ccc(C(=O)NC(C)C)cc4n23)c1 ?
Methyltransferases: inactive

Results for O=C(Cc1ccc(F)cc1)NC1CCN(c2cc(-c3ccccc3)[nH]n2)CC1 ?
Methyltransferases: inactive

Results for CC1(C(=O)N2CCOCC2)CN(Cc2ccccc2)Cc2ccc(Nc3ccccc3)nc21 (stereo unspecified) ?
Methyltransferases: inactive

Results for CN1CCN(CCCN2C(=O)c3cc4sccc4n3CC2(C)C(=O)NC2CCCCC2)CC1 (stereo unspecified) ?
Methyltransferases: inactive

How did Cc1ccc(C(=O)C(C)n2nc3n(C(C)C)c(=O)c4ccc(C(=O)NC(C)C)cc4n3c2=O)cc1C (stereo unspecified) do in these assays?
Methyltransferases: inactive

Results for O=C(Cn1nc2n(CCc3ccccc3)c(=O)c3ccccc3n2c1=O)Nc1ccc(Cl)cc1 ?
Methyltransferases: inactive

How did CC[C@H](C)[C@H](N)C(=O)N1CCC(Cn2cc(C3CCCC3)nn2)CC1 do in these assays?
Methyltransferases: inactive

What do the screens show for `COc1ccc(CC(=O)N2C[C@@H](CO)[C@H](c3ccccn3)C2)cc1`?
Methyltransferases: inactive

Results for CCCNC(=O)N1CCCCC1c1n[nH]c(C)n1 (stereo unspecified) ?
Methyltransferases: inactive

Results for COCCNC(=O)Cn1c(=O)oc2cc(S(=O)(=O)N3CC(C)CC(C)C3)ccc21 (stereo unspecified) ?
Methyltransferases: inactive

Results for N#Cc1ccc(CN2CCCC3(Cc4ccccc4NC3=O)C2)cc1 (stereo unspecified) ?
Methyltransferases: inactive

Results for COCC1(CNC(=O)c2nc3ccccc3[nH]2)C[C@@H](O)[C@@H](O)C1 (stereo partly specified) ?
Methyltransferases: inactive

How did CC1(C(=O)NC2CCCCC2)Cn2c(cc3sccc32)C(=O)N1CCCN1CCOCC1 (stereo unspecified) do in these assays?
Methyltransferases: inactive

How did Cc1ccc(-c2nc(CN3CCCC3=O)no2)cc1 do in these assays?
Methyltransferases: inactive

Results for O=C(NCc1noc(-c2cccs2)n1)[C@H]1CNC[C@H](C(=O)N2CCCC2)C1 ?
Methyltransferases: inactive

What do the screens show for `Cc1ccc(CN2CCN(c3ncnc4onc(C)c34)CC2CCO)cc1` (stereo unspecified)?
Methyltransferases: inactive

Results for CCCn1c(=O)c2ccc(C(=O)NC(C)C)cc2n2c(SCC(=O)NCc3ccc(C)cc3)nnc12 ?
Methyltransferases: inactive

How did CC(C)Cn1c(=O)c2ccc(C(=O)NC(C)C)cc2n2c(=O)n(CC(=O)NC3CCCC3)nc12 do in these assays?
Methyltransferases: inactive

Results for O=C(NCCc1ccccc1)C1CCC(=O)N(CCCN2CCOCC2)C1 (stereo unspecified) ?
Methyltransferases: inactive

How did Cc1ccc(C)c(N2C(=O)c3cc4sccc4n3CC2(C)C(=O)NC2CCCCC2)c1 (stereo unspecified) do in these assays?
Methyltransferases: inactive

What do the screens show for `O=C(C1CCCN1C(=O)c1ccccc1Cl)N1CCC(c2nc3ccncc3[nH]2)CC1` (stereo unspecified)?
Methyltransferases: inactive

What do the screens show for `CN1CCN(CCNC(=O)c2cc3n(n2)CC(C)(C(=O)NC2CCCCC2)N(C)C3=O)CC1` (stereo unspecified)?
Methyltransferases: inactive

How did CSc1ccc(CNC(=O)CCn2ccc3cc(S(=O)(=O)N4CCCCC4)ccc32)cc1 do in these assays?
Methyltransferases: inactive

Results for C[C@](N)(Cc1ccc(O)cc1)C(=O)O ?
Methyltransferases: inactive

How did CCC1c2ccc(C)n2CCN1C(=O)Nc1cccc(Cl)c1 (stereo unspecified) do in these assays?
Methyltransferases: inactive

What do the screens show for `O=C(COC(=O)C(Cc1c[nH]c2ccccc12)NC(=O)c1ccco1)c1ccccc1` (stereo unspecified)?
Methyltransferases: inactive

Results for COc1cc2c(cc1O)CC[C@@H]1[C@@H]2CC[C@]2(C)[C@@H](O)CC[C@@H]12 ?
Methyltransferases: active

How did COc1ccc(OC)c(S(=O)(=O)N2CCC[C@H](n3c(=O)n(C)c4cccnc43)C2)c1 do in these assays?
Methyltransferases: inactive

Results for CCC(C)C(=O)Oc1cc(C)ccc1C1(COC(=O)C(C)C)CO1 (stereo unspecified) ?
Methyltransferases: inactive

Results for CCC(C(=O)NCc1ccc(OC)cc1)n1ccc2cc(S(=O)(=O)N3CCCCC3)ccc21 (stereo unspecified) ?
Methyltransferases: inactive

What do the screens show for `Cc1ccc(-c2nnn3c2nc(N2CCCCC2)c2ccccc23)cc1`?
Methyltransferases: inactive

How did O=S(=O)(Nc1cccnc1)c1ccc(Cl)c(-c2nnc(-c3ccccc3)o2)c1 do in these assays?
Methyltransferases: inactive

What do the screens show for `Cc1ccc(S(=O)(=O)N(C)C2CCc3ccccc32)cc1` (stereo unspecified)?
Methyltransferases: inactive

How did CCn1c(-c2nc3cc(C(=O)N4CCC[C@@H](N)C4)cc(OC)c3n2C)cc2ccccc21 do in these assays?
Methyltransferases: inconclusive

What do the screens show for `COCCOCc1nc(C2CCCN2C(=O)Nc2ccc(F)cc2F)no1` (stereo unspecified)?
Methyltransferases: inactive

What do the screens show for `C=Cc1ccc(CSc2nnc3n(CC(C)C)c(=O)c4ccccc4n23)cc1`?
Methyltransferases: inactive

What do the screens show for `NCC(=O)N1CCCC2(Cc3ccccc3CN2S(=O)(=O)c2ccccc2)C1` (stereo unspecified)?
Methyltransferases: inactive

Results for CC(C)(C)c1nn2c(SCC(=O)Nc3ccc(Cl)cc3)nnc2[nH]c1=O ?
Methyltransferases: inactive

Results for COc1ccc(OC)c(CN2C(=O)c3ccc(-c4ccco4)n3CC2(C)C(=O)NC2CCCCC2)c1 (stereo unspecified) ?
Methyltransferases: inactive

How did O=C(NC1CC(c2nnc(CO)n2C2CC2)C1)c1cccn2cnnc12 (stereo unspecified) do in these assays?
Methyltransferases: inactive

How did Cc1ccc(C(=O)N(CC2CCN(Cc3ccccc3F)CC2)CC2CCCO2)s1 (stereo unspecified) do in these assays?
Methyltransferases: inactive

What do the screens show for `CCOc1cc(CN2CCC(C(Cc3ccccc3F)N(C)C(=O)c3cccs3)CC2)ccc1O` (stereo unspecified)?
Methyltransferases: inconclusive

What do the screens show for `O=C(/C=C/c1ccc(O)cc1)OC[C@H]1O[C@@H](OC(=O)/C=C/c2ccccc2)[C@H](O)[C@@H](O)[C@@H]1O`?
Methyltransferases: inconclusive

Results for CC(C)CCN1CC2(CCCN(S(=O)(=O)N3CCOCC3)C2)CCC1=O (stereo unspecified) ?
Methyltransferases: inactive

How did O=C(NCc1ccccc1Cl)c1ccc2c(=O)nc3c(-c4cccc(F)c4)n[nH]n3c2c1 do in these assays?
Methyltransferases: inactive

What do the screens show for `CCOC(=O)c1cc2n(n1)CC(C)(C(=O)NCCOC)N(Cc1ccccc1OC)C2=O` (stereo unspecified)?
Methyltransferases: inactive

What do the screens show for `O=C(O)CO[C@@H]1COCC[C@H]1NC(=O)CCCn1cncn1`?
Methyltransferases: inactive

How did O=C(c1ccc2ccccc2n1)N1C[C@@H](CO)[C@H](c2ccncc2)C1 do in these assays?
Methyltransferases: inactive

What do the screens show for `CCCn1c(=O)c2ccc(C(=O)NC3CCCCC3)cc2n2c(=O)n(Cc3ccccc3F)nc12`?
Methyltransferases: inactive

How did Cc1noc(C)c1CCCNC(=O)c1ccc(NC[C@H]2C[C@H]3C=C[C@H]2C32CC2)nc1 do in these assays?
Methyltransferases: inactive

How did Fc1ccc2nc(CCC#Cc3ccccn3)cn2c1 do in these assays?
Methyltransferases: inactive

How did CCC(C)NC(=O)c1ccc2c(=O)n(C)c3nn(CC(=O)Nc4ccc(C)cc4)c(=O)n3c2c1 (stereo unspecified) do in these assays?
Methyltransferases: inactive

What do the screens show for `O=S(=O)(NCCn1c(CCc2ccccc2)nc2ccccc21)c1ccccc1Cl`?
Methyltransferases: inactive

What do the screens show for `O=C1CC(c2ccccc2)N(C(=O)CNC(=O)c2ccncc2)CCCCCN1` (stereo unspecified)?
Methyltransferases: inactive

Results for CCOCCCNC(=O)C1(C)Cn2c(ccc2-c2ccco2)C(=O)N1c1ccc(OC)cc1 (stereo unspecified) ?
Methyltransferases: inactive

What do the screens show for `Cc1ccc(C(=O)N2C[C@@H](CN3CCOCC3)[C@@H](CO)C2)cc1O`?
Methyltransferases: inactive

What do the screens show for `C=C(C)C1CCC2(C(=O)O)CCC3(C)C(CCC4C5(C)C(C=O)C(O)C(C)(C)C5CCC43C)C12` (stereo unspecified)?
Methyltransferases: inactive

How did Cc1ccc(C(=O)N2C[C@@H](Oc3cccnc3)C[C@H]2C(N)=O)s1 do in these assays?
Methyltransferases: inactive

Results for Cc1cccc(N2CCN(C(=O)C3c4ccccc4CC(=O)N3C)CC2)c1C (stereo unspecified) ?
Methyltransferases: inactive

Results for C=CCn1c(=O)c2ccc(C(=O)NC(C)CC)cc2n2c(=O)n(CC(=O)Nc3cccc(C)c3)nc12 (stereo unspecified) ?
Methyltransferases: inactive

Results for c1ccc(COC2CCN(c3nccc(-c4cccnc4)n3)CC2)nc1 ?
Methyltransferases: inactive

How did Cc1ccccc1CN1C(=O)c2ccc(-c3ccco3)n2CC1(C)C(=O)NC1CCCC1 (stereo unspecified) do in these assays?
Methyltransferases: inactive

Results for CCCCOc1ccc2c(-c3ccccc3)cc(=O)oc2c1 ?
Methyltransferases: inactive

What do the screens show for `CC(=O)Nc1c2n(c3ccc(F)cc13)CC(C)(C(=O)NC1CCCC1)N(c1ccccc1C)C2=O` (stereo unspecified)?
Methyltransferases: inactive

Results for Cc1ccc2n1CCN(C(=O)Nc1cccc(C(F)(F)F)c1)C2C(C)C (stereo unspecified) ?
Methyltransferases: inactive

What do the screens show for `COc1ccc(OC)c(S(=O)(=O)N2CCN(S(=O)(=O)c3cc(OC)ccc3OC)CC2)c1`?
Methyltransferases: inactive

How did CC1(C(=O)NC2CCCCCCC2)Cn2c(cc3occc32)C(=O)N1Cc1cccs1 (stereo unspecified) do in these assays?
Methyltransferases: inactive

How did CC(C)CCn1c(=O)c2ccccc2n2c(CCC(=O)NCc3ccc(F)cc3)nnc12 do in these assays?
Methyltransferases: inactive

What do the screens show for `CC(C)CCn1c(=O)c2ccccc2n2c(SCC(=O)Nc3ccccc3F)nnc12`?
Methyltransferases: inactive

What do the screens show for `CCN(CC)CCCN(c1ccccc1)C1Cc2ccccc2C1`?
Methyltransferases: inactive

What do the screens show for `Cc1ccc(C(=O)N2CCCCCNC(=O)[C@@H]3CCC[C@@H]32)s1`?
Methyltransferases: inactive

How did CC1CC(C)CN(S(=O)(=O)c2ccc3c(c2)oc(=O)n3CC(=O)N2CCc3ccccc3C2)C1 (stereo unspecified) do in these assays?
Methyltransferases: inactive

What do the screens show for `COc1ccc(OC)c(S(=O)(=O)N2CCC(N3C[C@H](OC)[C@@H]3c3ccncc3)CC2)c1`?
Methyltransferases: inactive

Results for CN1C(=O)c2cc(C(=O)N3CCN(c4ccc(F)cc4)CC3)nn2CC1(C)C(=O)NC1CCCC1 (stereo unspecified) ?
Methyltransferases: inactive

Results for CCOc1ccc(N2C(=O)c3cc(C(=O)OC)nn3CC2(C)C(=O)NC2CCCCC2)cc1 (stereo unspecified) ?
Methyltransferases: inactive

What do the screens show for `CN1CCC(C(=O)N2CCC(n3c(=O)[nH]c4ccccc43)CC2)CC1`?
Methyltransferases: inactive

A portion of the library. The share of hits here may be higher or lower than overall.
